Bioassay records: PubChem BioAssay, Broad Institute
FGF22 binding = shifts melting point of recombinant human FGF22; Q9HCT0; recombinant FGF22 thermal shift, SYPRO orange fluorescence; percent of sucrose octasulfate shift, DMSO zero; calls only at 9.99 µM; actives 1.5% (n = 340,000); AID 651658;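 active means melting point raised past a set limit in the mean and every replicate; three in four hits are not shown here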
Target sequence (Q9HCT0 whole entry, looked up): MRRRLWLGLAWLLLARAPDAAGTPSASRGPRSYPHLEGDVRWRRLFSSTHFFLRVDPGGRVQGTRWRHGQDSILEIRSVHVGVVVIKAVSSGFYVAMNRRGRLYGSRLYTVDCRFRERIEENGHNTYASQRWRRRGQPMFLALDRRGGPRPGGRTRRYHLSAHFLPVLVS
Ecoli rRNA inh = inhibitors of bacterial rRNA selective over humanized ribosomes | E. coli WT GFP vs humanized-ribosome RFP mutants, fluorescence, 24 h; active compounds read low; DMSO median 0, no signal -100 | GFP signal change (wild-type ribosome), % (test concentration not listed) | actives 1.6% (n = 350,000);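 active means significant combined selectivity score with lowered wild-type GFP, culture density cut under 30%, mutant RFP and density less affected; inactive means any of these conditions unmet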; further: one replicate is shown; some compounds called inactive have numbers as strong as hits
Ecoli rRNA inh OD600 = recorded beside Ecoli rRNA inh, whose call it bears; OD600 change, %; measured here: OD600 growth;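 optical density of the mix in the first replicate; 0 = DMSO median and -100 = no signal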
Ecoli rRNA inh RFP = further read-out of Ecoli rRNA inh, marked with its call; RFP signal change, %; measured here: RFP humanized mutant strains;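 first replicate; 0 = DMSO median and -100 = no signal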
Starred values were filed as active, the others as inactive; i = inactive; + = active, no number.

Ecoli rRNA inh RFP,Ecoli rRNA inh,Ecoli rRNA inh OD600,FGF22 binding,Compound
-1.2,-1,2,i,C[C@H]1CN([C@@H](C)CO)C(=O)c2c(c3ccccc3n2C)-c2ccccc2CO[C@@H]1CN(C)C(=O)[C@H](Cc1ccccc1)N(C)C
-1.8,0,3,i,C[C@H](CO)N1C[C@H](C)[C@@H](CN(C)C(=O)c2cnccn2)Oc2cc(C3=CCCC3)ccc2S1(=O)=O
0.4,0,1,i,C[C@H](CO)N1C[C@H](C)[C@H](CN(C)C(=O)Nc2ccc3c(c2)OCO3)OCc2ccccc2-c2c(n(C)c3ccccc23)C1=O
-1.6,2,8,i,C[C@@H]1CN([C@@H](C)CO)C(=O)c2cc(NC(=O)CCCCCC(=O)Nc3ccccc3N)ccc2O[C@@H]1CN(C)S(=O)(=O)c1cn(C)cn1
9.2,-1,9,i,Cc1ccc(S(=O)(=O)N2CC[C@@H]3[C@H]2c2cc(-c4ccccc4F)ccc2N[C@@H]3CO)cc1
-4.5,-23,-24,i,C[C@@H]1CN([C@H](C)CO)S(=O)(=O)c2ccc(-c3cccc(C#N)c3)cc2O[C@H]1CN(C)Cc1ccccn1
0.3,-3,-12,i,Cc1ccc(-c2ccc3c(c2)O[C@H](CN(C)C(=O)NC(C)C)[C@H](C)CN([C@H](C)CO)S3(=O)=O)cc1
3.8,1,-7,i,COc1ccc(-c2ccc3c(c2)[C@@H]2[C@@H](CCN2C(=O)c2ccc4c(c2)OCO4)[C@H](CO)N3C)cc1
-0.5,3,11,i,CCC(=O)N[C@@H]1CC[C@H](CCn2cc(C3CC3)nn2)O[C@H]1CO
-1.3,3,19,i,Cc1ccc(-c2cnc3c(c2)C(=O)N([C@H](C)CO)C[C@@H](C)[C@@H](CN(C)CC2CCOCC2)O3)cc1

Ecoli rRNA inh RFP,Ecoli rRNA inh,Ecoli rRNA inh OD600,FGF22 binding,Compound
-18,-60,-82,i,C[C@@H]1CN([C@H](C)CO)C(=O)Cc2cc(NC(=O)CCCN(C)C)ccc2O[C@@H]1CN(C)Cc1ccc(-c2ccccc2)cc1
-0.7,2,4,i,COc1ccccc1S(=O)(=O)N[C@@H]1C=C[C@@H](CC(=O)NCc2cc(F)cc(F)c2)O[C@@H]1CO
29,0,-30,+,CO[C@@H](CN(C)S(=O)(=O)c1ccc(Cl)cc1)[C@@H](C)CN([C@H](C)CO)S(=O)(=O)c1cccc(Cl)c1
-0.4,3,2,i,CNC[C@@H]1Oc2c(NS(=O)(=O)c3ccc(OC)cc3)cccc2C(=O)N([C@H](C)CO)C[C@@H]1C
3.6,-8,-25,+,CC1C=NC(S(=O)(=O)N2CC[C@@H]3[C@@H](CO)N(C)c4ccc(-c5ccc(F)cc5)cc4[C@@H]32)=N1 (stereo partly drawn)
-3.6,3,3,i,C[C@H]1CN([C@@H](C)CO)C(=O)c2cc(C3=CCCC3)cnc2O[C@H]1CN(C)C(=O)C1CCCCC1
4.5,-21,-57,i,CC(=O)N1CCCCN2[C@H](C1)[C@@H](c1ccc(-c3cccc(C)c3)cc1)[C@@H]2CO
0.5,0,-7,i,C[C@@H]1CN([C@@H](C)CO)C(=O)c2cccc(NS(=O)(=O)c3ccc(Cl)cc3)c2O[C@@H]1CN(C)C
3.3,-6,-18,i,Cc1cc(-c2cc(NC(=O)Cc3c[nH]c4ccccc34)ccc2Nc2cccnc2)ccc1F
-1.7,1,3,i,CO[C@H]1CN(C)C(=O)c2ccc(NC(=O)C3CC3)cc2OC[C@@H](C)N(C(=O)C2CCOCC2)C[C@@H]1C

Ecoli rRNA inh RFP,Ecoli rRNA inh,Ecoli rRNA inh OD600,FGF22 binding,Compound
-0.3,-2,3,i,CC=Cc1ccc2n(c1=O)C[C@H]1[C@H](CO)[C@@H](C(=O)NC3CCCC3)N(Cc3ccncc3)[C@@H]21 (mixture of isomers)
-0.8,-3,-2,i,CCC(=O)N1CC2(C1)[C@H](c1ccc(-c3ccc(C)cc3)cc1)[C@@H](CO)N2S(C)(=O)=O
4.9,-5,1,i,C[C@@H]1CN([C@H](C)CO)C(=O)c2cc(NS(=O)(=O)c3ccccc3)ccc2O[C@H]1CN(C)S(=O)(=O)c1ccccc1
-0.7,-1,-5,i,C[C@H]1CN([C@@H](C)CO)C(=O)CCCn2nncc2CO[C@H]1CN(C)Cc1ccc(O)cc1
2.8,6,-12,i,C[C@H]1CN([C@@H](C)CO)C(=O)c2cc(NC(=O)Nc3cccc4ccccc34)ccc2O[C@@H]1CN(C)C(=O)Nc1cccc2ccccc12
-2.4,3,13,i,CC(=O)N(C)C[C@H]1Oc2cc(-c3cncnc3)ccc2S(=O)(=O)N([C@@H](C)CO)C[C@@H]1C
-0.4,-4,-9,i,C[C@@H](NC(=O)C[C@H]1CC[C@@H]2[C@H](COc3ccc(NS(=O)(=O)c4ccc(Cl)cc4)cc3C(=O)N2C)O1)c1ccccc1
-1.5,1,-2,i,O=S(=O)(N[C@@H]1CC[C@@H](CCn2cc(-c3cccnc3)nn2)O[C@H]1CO)c1ccc(F)cc1
-2.2,0,5,i,CO[C@H]1CN(C)C(=O)c2ccc(NC(=O)CC(F)(F)F)cc2OC[C@@H](C)N(CC2CC2)C[C@H]1C
-1.4,-3,-4,i,C[C@@H]1CCCCO[C@H](CN(C)C(=O)Cc2ccccc2)[C@@H](C)CN([C@H](C)CO)C(=O)c2cc(NS(=O)(=O)c3cn(C)cn3)ccc2O1

Ecoli rRNA inh RFP,Ecoli rRNA inh,Ecoli rRNA inh OD600,FGF22 binding,Compound
12,-6,-22,i,Cc1ccc(-c2nc3c(Br)cc(C)cn3c2Cc2cccc(Cl)c2)cc1
-1.3,8,4,i,C[C@H](CO)N1C[C@H](C)[C@H](CN(C)C(=O)NC2CCCCC2)Oc2ccc(NC(=O)C3CC3)cc2CC1=O
-1.5,3,17,i,COc1ccc(-c2ccc3c(c2)[C@@H]2[C@@H](CCN2C(=O)CN2CCOCC2)[C@H](CO)N3)cc1
-0.3,-3,-1,i,C[C@@H]1CN([C@H](C)CO)C(=O)c2cc(C#CC3CCCCC3)cnc2O[C@@H]1CN(C)S(C)(=O)=O
-0.4,2,-2,i,CC(=O)N(C)C[C@@H]1Oc2cc(C#CC3(O)CCCC3)ccc2S(=O)(=O)N([C@@H](C)CO)C[C@H]1C
-2.3,16,17,i,O=C(O)C1CCCN1C(=O)c1cccc(Cl)c1 (stereo not drawn)
-1.5,4,10,i,C[C@H](NC(=O)C[C@H]1C=C[C@@H](NC(=O)c2cccnc2)[C@@H](CO)O1)c1ccccc1
8.0,3,-5,i,COc1ccc(S(=O)(=O)Nc2ccc3c(c2)CC(=O)N([C@@H](C)CO)C[C@H](C)[C@H](CN(C)S(=O)(=O)c2ccc(C)cc2)O3)cc1
-2.0,6,8,i,CNC[C@@H]1Oc2ccc(NC(=O)C3CCCCC3)cc2CC(=O)N([C@H](C)CO)C[C@H]1C
3.0,0,-5,i,C[C@@H]1CN([C@H](C)CO)C(=O)c2cc(NC(=O)c3ccncc3)ccc2O[C@@H](C)CCCCO[C@@H]1CN(C)C(=O)Nc1cccc2ccccc12

Ecoli rRNA inh RFP,Ecoli rRNA inh,Ecoli rRNA inh OD600,FGF22 binding,Compound
-0.6,-3,-11,i,C[C@H]1CN([C@@H](C)CO)C(=O)c2cc(NC(=O)Nc3ccccc3)ccc2O[C@H]1CN(C)C(=O)NC1CCCCC1
0.0,3,9,i,C[C@@H]1CCCCO[C@@H](CN(C)C(=O)Nc2ccc3c(c2)OCO3)[C@H](C)CN([C@@H](C)CO)C(=O)c2cc(NC(=O)Nc3ccccc3)ccc2O1
-0.4,5,0,i,C[C@@H]1CN([C@@H](C)CO)S(=O)(=O)c2ccc(C#Cc3cccc(F)c3)cc2O[C@H]1CN(C)S(=O)(=O)c1ccccc1F
-2.3,2,-6,i,O=C(NCC[C@@H]1CC[C@H](NC(=O)C2CC2)[C@H](CO)O1)c1cnccn1
0.4,0,5,i,Cc1ccc(S(=O)(=O)N(C)C[C@@H]2Oc3ccc(NC(=O)CCN4CCOCC4)cc3C(=O)N([C@@H](C)CO)C[C@H]2C)cc1
-0.9,4,1,i,C[C@@H]1CCCCO[C@H](CN(C)Cc2ccc(C(=O)Nc3ccccc3N)cc2)[C@@H](C)CN([C@H](C)CO)C(=O)c2cc(NS(C)(=O)=O)ccc2O1
-1.4,-2,-5,i,C[C@@H]1CN([C@H](C)CO)C(=O)c2cccc(NC(=O)NC3CCCCC3)c2O[C@H]1CN(C)S(C)(=O)=O
-0.6,-1,-10,i,COc1ccc2c3c([nH]c2c1)[C@H](CO)N(C(C)=O)CC31CN(C(=O)Nc2ccc(F)cc2)C1
-2.5,-1,-12,i,CC(C)C#Cc1ccc2c(c1)O[C@@H](CN(C)C(=O)C1CC1)[C@H](C)CN([C@@H](C)CO)S2(=O)=O
0.5,2,-11,i,O=C(NC1CCCC1)N1CCCCN2[C@H](CO)[C@@H](c3ccc(-c4cncnc4)cc3)[C@H]2C1

Ecoli rRNA inh RFP,Ecoli rRNA inh,Ecoli rRNA inh OD600,FGF22 binding,Compound
-3.5,2,8,i,CN1[C@@H]2Cn3c(ccc(-c4ccccc4)c3=O)[C@H]1[C@@H](C(=O)NCCCN1CCOCC1)[C@@H]2CO
-3.0,-9,-15,i,CCOC(=O)C1=CCN(S(=O)(=O)c2cccc(Cl)c2)C1c1cccc(Br)c1 (stereo not drawn)
-0.1,-12,-41,i,CO[C@@H](CN(C)S(=O)(=O)c1ccc(Cl)cc1)[C@@H](C)CN(Cc1ccccc1Cl)[C@H](C)CO
22,-7,-52,i,O=C(C[C@H]1CC[C@@H]2[C@H](COC[C@@H](O)CN2S(=O)(=O)c2ccc(Oc3ccccc3)cc2)O1)Nc1ccccc1
3.0,2,23,i,COC(=O)C[C@@H]1CC[C@@H]2[C@H](COC[C@H](O)CN2S(=O)(=O)c2ccccc2C)O1
0.5,-3,-5,i,C[C@@H]1CN([C@@H](C)CO)S(=O)(=O)c2ccc(Br)cc2O[C@@H]1CN(C)C(=O)CC1CC1
-3.3,-4,-1,i,COCC(=O)N(C)C[C@@H]1Oc2cc(-c3ccccc3F)ccc2S(=O)(=O)N([C@@H](C)CO)C[C@@H]1C
-1.4,1,1,i,Cc1noc(C)c1NC(=O)Nc1cccc2c1O[C@@H](CN(C)CC1CC1)[C@H](C)CN([C@@H](C)CO)C2=O
-0.7,1,5,i,CC(=O)N1CC[C@@H]2[C@@H](CO)N(C)c3ccc(-c4ccccc4)cc3[C@@H]21
0.3,0,3,i,CS(=O)(=O)N1CCCCN2[C@@H](CO)[C@H](c3ccc(-c4cccc(C#N)c4)cc3)[C@@H]2C1

Ecoli rRNA inh RFP,Ecoli rRNA inh,Ecoli rRNA inh OD600,FGF22 binding,Compound
-1.3,-6,0,i,O=C(C[C@H]1C=C[C@H](NC(=O)c2ccccc2)[C@H](CO)O1)Nc1ccc(-c2ccccc2)cc1
0.8,-3,1,i,C[C@H](CO)N1C[C@H](C)[C@H](CN(C)Cc2ccc(Cl)c(Cl)c2)Oc2ccc(NC(=O)CCN3CCOCC3)cc2CC1=O
-1.3,2,3,i,COC(=O)[C@]12C[C@H](CC(=O)NCC34CC5CC(CC(C5)C3)C4)C(=O)N(Cc3ccccc3)C1=C[C@H](C1CCCC1)O[C@@H]2C
0.5,2,3,i,COc1ccc(NC(=O)N(C)C[C@@H]2Oc3ccc(NC(=O)CCN4CCOCC4)cc3C(=O)N([C@H](C)CO)C[C@@H]2C)cc1
1.7,6,15,i,CN(C)C(=O)C[C@H]1CC[C@@H]2[C@H](COC[C@@H](O)CN2C(=O)c2ccncc2)O1
-1.6,2,-1,i,COc1cccc(NC(=O)N2C[C@H](O)COC[C@H]3O[C@H](CC(=O)N(C)C)CC[C@@H]32)c1
7.1,-16,-43,i,C[C@H]1CN([C@@H](C)CO)S(=O)(=O)c2ccc(C#CC(C)(C)O)cc2O[C@@H]1CN(C)Cc1ccccc1
1.9,4,8,i,CNC[C@H]1Oc2cc(C#Cc3cccc(F)c3)ccc2S(=O)(=O)N([C@@H](C)CO)C[C@H]1C
-0.3,-2,-7,i,COc1ccccc1CN1[C@H](C(=O)NCc2ccccc2)[C@@H](CO)[C@@H]2Cn3c(cccc3=O)[C@@H]21
-0.3,2,-1,i,CCCNC(=O)C[C@H]1CC[C@H]2[C@@H](COc3ccc(NC(=O)Nc4ccccc4)cc3C(=O)N2C)O1
1.4,-4,-4,i,CN(C)CC(=O)N[C@H]1CC[C@@H](CCNS(=O)(=O)c2ccccc2)O[C@H]1CO

The list is partial; count on the stated rates, not on these rows.
